CtBP-E1A inh – CtBP/E1A binding inhibition | AlphaScreen GST-E1A/His-CtBP binding, 1536-well; stronger effect = lower value; control for the full effect not named in the record | activity change, % (concentration not given with the values) | AID 651724 | actives 0.49% (n = 340,000); in the data active means activity change below about -65%; inconclusive means about -30% to -65%; inactive means above about -30%; note: % is set by controls: 0 for no effect and ±100 for the full control effect
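In 5 uL wells, 23 nL compound meets equimolar GST-E1A and His-CtBP (5X stock 125 nM each) for 2 h, 37 °C. Beads (5X, 50 ug/mL) then 1 h, 37 °C, dark.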
Six1-Eya2 blk – blocks human Six1 binding to Eya2. Q15475+O00167. AlphaScreen GST-Six1/His-Eya2 binding, biochemical; stronger effect = lower value; control for the full effect not named in the record. activity change, % (no concentration beside the values). AID 651725. actives 0.56% (n = 360,000); in the data active = activity change below about -65%; inconclusive = about -30% to -65%; inactive = above about -30%; note: % is set by controls: 0 for no effect and ±100 for the full control effect; compound concentration not given in the record
Target sequence (O00167 whole entry, looked up): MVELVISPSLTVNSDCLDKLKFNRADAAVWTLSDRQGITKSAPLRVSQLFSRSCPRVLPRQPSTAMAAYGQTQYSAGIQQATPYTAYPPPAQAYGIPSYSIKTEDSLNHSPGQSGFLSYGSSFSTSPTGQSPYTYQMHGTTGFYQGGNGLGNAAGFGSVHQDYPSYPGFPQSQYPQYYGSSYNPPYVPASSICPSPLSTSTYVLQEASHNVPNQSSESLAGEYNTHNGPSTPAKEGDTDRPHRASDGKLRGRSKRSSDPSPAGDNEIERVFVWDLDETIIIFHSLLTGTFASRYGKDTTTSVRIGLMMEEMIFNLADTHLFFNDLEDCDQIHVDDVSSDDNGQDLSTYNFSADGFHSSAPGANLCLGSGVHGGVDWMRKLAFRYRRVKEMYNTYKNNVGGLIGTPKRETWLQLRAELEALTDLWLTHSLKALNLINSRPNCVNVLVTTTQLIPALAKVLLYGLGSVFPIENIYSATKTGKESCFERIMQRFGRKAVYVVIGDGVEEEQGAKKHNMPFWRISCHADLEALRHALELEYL
Target sequence (Q15475 whole entry, looked up): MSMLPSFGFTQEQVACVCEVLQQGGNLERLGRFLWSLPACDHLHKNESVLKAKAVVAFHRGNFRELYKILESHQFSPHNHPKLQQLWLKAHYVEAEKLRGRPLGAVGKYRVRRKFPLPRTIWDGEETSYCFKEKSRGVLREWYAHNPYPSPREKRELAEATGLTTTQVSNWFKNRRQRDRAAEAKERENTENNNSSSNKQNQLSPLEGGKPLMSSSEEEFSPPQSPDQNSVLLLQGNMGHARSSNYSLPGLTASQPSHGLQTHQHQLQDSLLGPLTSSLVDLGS
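Six1/Eya2 binding was read as AlphaScreen signal after compounds were pinned into GST-Six1 plus His-tagged Eya2 (5X stock 250/500 nM) in pH 8.0 Tris/NaCl/TCEP buffer, beads added, then incubated 1 h, 37 C, dark.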
D2 agonist – human D2 receptor agonism in beta-arrestin assay. P14416. DiscoveRx PathHunter D2 beta-arrestin, luminescence, 90 min; 100% = 57 uM dopamine signal. activation, % (concentration not given with the values). actives 0.084% (n = 360,000). AID 624465; in the data active = activation above about 40%; inconclusive = about 15% to 40%; inactive = below about 15%; note: compound concentration not given in the record; the text of the record calls up to 30% inactive
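DiscoveRx PathHunter D2 beta-arrestin cells (2,100/well) attached overnight, then compound-stimulated 90 min at 37 C in HBSS/10 mM HEPES/0.1% Tween-20 buffer; beta-galactosidase complementation read by luminescence after 1 h at ambient temperature. Dopamine 57 uM final (EC100) as control.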
TRPML1 inh – inhibitors of human TRPML1 channel | Q9GZU1 | actives 0.02% (n = 390,000) | activity change, negative = inhibition, % (no concentration beside the values) | AID 624415 | TRPML1-inducible cells, Ca2+ dye fluorescence, FDSS; stronger effect = lower value; inhibition of EC80 agonist-evoked calcium signal; in the data active means activity change below about -50%; inconclusive means about -30% to -50%; inactive means above about -30%;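 note: stimulus is agonist 54-4 at its EC80 concentration; % is set by controls: 0 for no effect and ±100 for the full control effect; compound concentration not given in the record; the text of the record puts the active cut at -80%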
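TRPML1-DL cells, Tet-induced overnight (~16 h, 37 °C) at 1,500 cells/well, were loaded with Ca8 no-wash dye plus quencher for 45-90 min at room temperature. Compounds were pinned during FDSS kinetic reading; agonist 54-4 at EC80 (4 uM final) then added.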
TRPML1 agonist – activates the human TRPML1 channel; Q9GZU1; TRPML1-expressing cells, Ca2+ dye fluorescence, FDSS; host cell line not named in the record; reference of the full effect not given here; AID 624414; actives 0.12% (n = 410,000); activation, % (concentration not given with the values); in the data active = activation above about 50%; inconclusive = about 30% to 50%; inactive = below about 30%; note: 0% is about no effect; the text of the record puts the active cut at 80%
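Calcium fluorescence on an FDSS kinetic reader gave the read-out. Tet-induced TRPML1-DL cells were plated overnight, dye-loaded (Ca8 with quencher, 45-90 min, room temperature, dark), then read 110 s after compound addition, and again 110 s after 4uM final 54-4 (EC80).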
PINK1 expr mod – changes PINK1 expression; PINK1 immunofluorescence, high-content cytometry, 24 h; Potency, µM (top dose mostly 76.6 µM), inactives show top-dose activation (PINK1 increase), actives largely listed as activators; actives 0.2% (n = 410,000); AID 624263; active = well fitted activation curve with a large enough effect; inconclusive = small, poorly fitted or top-dose-only effect; inactive = flat fitted curve, though single readings scatter; cell line not stated here;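 note: potency is the fitted concentration of half-maximal effect; % of control where 0% means no effect; nearly all actives have a fitted effect of over 65% in size; a mitochondrial uncoupler was the plate control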
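Measures PINK1 amount and localization on or inside mitochondria by immunofluorescence. Stable cells get compounds at 5 concentrations for 24 hours before fixation and staining; CCCP controls included.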
* marks the source's active call; other numbers are inactive results; ? = inconclusive; nt = no result given; [ ] = dose if it differs, or a comment.

SMILES	CtBP-E1A inh	Six1-Eya2 blk	D2 agonist	TRPML1 inh	TRPML1 agonist	PINK1 expr mod
COc1ccc(CNC(=O)c2cc3c(=O)n4ccccc4nc3n(Cc3cccnc3)c2=N)cc1	-3	-5	-4.2	4	2.0	18%[38.3 µM]
CCn1nc(C(=O)OCC(=O)NCCN2C(=O)CSC2=O)c2ccccc2c1=O	-1	0	-1.6	7	3.5	-2.1%
COC(=O)c1ccc(C2C(C(=O)OCC(C)C)=C(C)N=C3SCCC(=O)N32)cc1 (stereo unspecified)	2	-2	-1.9	3	-0.5	6.7%
CCn1c(NCCO)nc2c(c1=O)C(C)(CC)Cc1ccccc1-2 (stereo unspecified)	0	7	-9.1	-2	-0.1	0.9%
COc1ccc([C@H]2CC(=O)C=C(c3ccc(O)cc3)C2)cc1OC	2	-9	1.3	-2	1.0	3.9%
COc1ccccc1NC(=O)CSc1oc(-c2ccc(F)cc2)nc1S(=O)(=O)c1ccc(Br)cc1	nt	nt	nt	-20	-0.4	-2.2%
CN(C(=O)COC(=O)c1cccc(NS(=O)(=O)c2ccc(F)c(F)c2)c1)C1CCS(=O)(=O)C1 (stereo unspecified)	nt	3	9.0	-9	0.6	-0.3%
COc1ccc2cc(/C=N/NC(=O)CN(c3ccccc3C)S(=O)(=O)c3ccccc3)c(Cl)nc2c1	6	-2	-2.6	5	0.6	17%
CCS(=O)(=O)Nc1ccc2[nH]c(=O)[nH]c2c1	-11	7	-5.0	-2	-1.2	0.6%
Cn1ccc2c([N+](=O)[O-])cccc2c1=O	1	-1	-3.9	5	1.2	-1.0%
COC(=O)[C@@H]1CCCN1Cc1nc(Cc2ccc(OC)c(OC)c2)no1	4	1	0.2	6	-0.5	-1.3%
COc1ccc(CNC(=O)Cc2csc3nc(-c4ccc(C)cc4)cn23)cc1	nt	nt	nt	1	-0.4	1.6%
CN1C(=O)/C(=C/c2cccc(Cl)c2)Sc2ccc(C(=O)N3CCOCC3)cc21	-2	-3	-0.8	-6	0.2	-0.4%
COc1ccc(N2CCN(c3ccc4nnc(CCC(=O)Nc5ccc(C)cc5)n4n3)CC2)cc1	0	0	-5.0	4	0.5	1.4%
Cc1ccc(S(=O)(=O)N2CCOCC2)s1	4	4	3.3	-16	1.0	-0.6%
CCOC(=O)c1c(-c2ccccc2)csc1NC(=O)c1ccc(S(=O)(=O)N2CC(C)OC(C)C2)cc1 (stereo unspecified)	13	4	-1.1	-18	1.7	15%[38.3 µM]
O=[N+]([O-])c1ccc(O)c(NC(=S)Nc2ccccc2)c1	-5	-14	-7.8	-9	-0.1	0.9%
CN(C)CCOc1cc(Cl)cc(Cl)c1	4	6	-1.3	1	5.5	-0.5%
CCN(CC)c1ccc(NC(=O)OC)cc1	-12	-27	4.4	0	0.9	-0.8%
O=C(NCc1ccco1)c1ccc2c(c1)N(Cc1ccccc1)C(=O)CS2=O (stereo unspecified)	-1	-1	4.1	1	1.0	2.8%
CC(=O)Nc1nonc1-c1nnc(SCC(=O)Nc2cc(C)ccc2C)n1-c1ccccc1	nt	nt	nt	4	-0.9	-0.8%
Cc1ccc(C(=O)C2CCN(CC(=O)N3CCN(c4ccc(F)cc4)CC3)CC2)cc1	-20	-7	1.3	25	1.1	0.3%
COc1ccccc1N1CCN(Cc2cc(=O)c(OCC(=O)Nc3ccccc3)co2)CC1	-26	5	3.9	-16	1.1	-2.3%
CC(C)(C)NC(=O)CCN(/N=C/c1ccccc1F)C1=NS(=O)(=O)c2ccccc21	2	6	-3.0	-13	-0.1	3.9%
COc1cccc(NC(=O)CSc2nc3c(oc4ccccc43)c(=O)n2Cc2ccco2)c1	nt	nt	nt	-6	0.1	7.4%
CCCCCCN1C[C@@H](n2cc(C3CC3)nn2)[C@H](O)C[C@@H]1c1ccc(Cl)cc1	1	-4	0.9	nt	nt	0.0%
COc1ccccc1NC(=O)N1CCN(c2ccc3nncn3n2)CC1	1	0	-4.2	-11	-0.3	0.8%
CCOC(=O)c1c(C)c(-c2ccccc2)n(CC(=O)NC(CC)Cc2ccccc2)c1C (stereo unspecified)	nt	nt	nt	52	0.7	1.2%
Cc1ccc(NC(=O)CNc2cccc(Br)c2)cc1S(=O)(=O)N1CCOCC1	2	-8	3.6	4	0.8	1.5%
Cc1ccc(-c2[nH]c3ccccc3c2SCCNC(=O)c2cc3ccccc3oc2=O)cc1	-17	-13	-1.5	14	0.1	0.8%

At a glance, part of the list above:
SMILES	CtBP-E1A inh	Six1-Eya2 blk	D2 agonist	TRPML1 inh	TRPML1 agonist	PINK1 expr mod
CN1C(=O)/C(=C/c2cccc(Cl)c2)Sc2ccc(C(=O)N3CCOCC3)cc21	-2	-3	-0.8	-6	0.2	-0.4%
COc1ccc(N2CCN(c3ccc4nnc(CCC(=O)Nc5ccc(C)cc5)n4n3)CC2)cc1	0	0	-5.0	4	0.5	1.4%

(cont.)
SMILES	CtBP-E1A inh	Six1-Eya2 blk	D2 agonist	TRPML1 inh	TRPML1 agonist	PINK1 expr mod
COc1ccc(NC(C)=O)cc1S(=O)(=O)N1CC=C(c2ccccc2)CC1	11	-1	10	27	0.1	4.1%
O=C(c1cc(-c2ccncc2)nc2ccc(Cl)cc12)N1CCN(C(=O)C2CCCO2)CC1 (stereo unspecified)	2	5	-3.8	0	-0.3	0.2%
O=[N+]([O-])c1ccc(S(=O)(=O)Nc2ccccn2)cc1	0	1	-0.5	-15	0.1	-0.4%
CN(C)CC(C)(C)CN=Cc1c(O)[nH]c2ccccc12	-5	2	-3.3	8	-0.3	0.0%
Cc1c(OC(C)C(=O)NCCCn2ccnc2)ccc2c3c(c(=O)oc12)CCC3 (stereo unspecified)	-2	-1	-6.3	-7	-0.8	-0.4%
Cc1ccc(Cl)cc1NC(=O)Cn1c(=O)oc2cc(S(=O)(=O)N3CCCC3)ccc21	nt	nt	nt	-3	-0.1	12%
O=C(CN1CCOCC1)NC1C2CC3CC(C2)CC1C3 (stereo unspecified)	-1	5	-2.8	0	1.1	0.4%
Cn1c(=O)[nH]c2nnc(-c3ccc(Cl)c(Cl)c3)nc2c1=O	-6	?	0.4	19	-0.3	-1.1%
NC(=O)C1CCN(C(=O)CCNS(=O)(=O)c2ccccc2F)CC1	1	2	4.0	-16	3.8	0.9%
COc1ccc(CC(=O)Nc2ccccc2NC(=O)Cc2ccc(OC)cc2)cc1	1	1	-2.7	-4	0.8	0.3%
O=C(COC(=O)c1ccc2c(c1)OCO2)Nc1ccccc1	-11	1	-2.9	-15	2.0	1.1%
COc1cc(NC(=O)Cn2cnc3c(SC)nc(N)nc32)cc(OC)c1OC	-2	-3	0.9	-12	-1.0	-0.8%
CCCCC(=O)N(C)c1c(CC)nc2c(OCCC)cccn12	-3	8	-2.6	nt	-0.9	1.1%
Cc1cc(Cl)ccc1NC(=O)CCC(=O)O	-2	6	1.1	15	-0.5	-0.1%
COc1cc(/C=N/n2c(-c3ccc4c(c3)NC(=O)CO4)csc2=Nc2cccc(C)c2)ccc1O	-17	?	0.2	2	1.2	1.8%
COc1ccc2nc(NC(=O)c3cccc(S(=O)(=O)N4CCOCC4)c3)sc2c1	-18	-12	-1.4	4	0.5	-0.6%
COCCn1c(SCC(=O)Nc2ccccc2)nc2c(oc3ccccc32)c1=O	nt	-1	-6.7	-18	0.5	2.9%
CCC(=O)N(CCc1ccccc1)Cc1cc2cccc(C)c2[nH]c1=O	nt	-7	-0.4	nt	nt	0.5%
CC(Sc1nc2cc(Cl)ccc2s1)C(=O)Nc1cccc(S(=O)(=O)N2CCOCC2)c1 (stereo unspecified)	4	5	-7.1	-9	1.7	0.3%
CCOC(=O)c1cc(C#N)c(SCC(=O)c2cc(C#N)c(SC)nc2C)nc1C	7	8	-0.7	-7	-0.2	13%[38.3 µM]
O=C(/C=C/c1ccccc1)NC(NC(=S)Nc1cccc(O)c1)C(Cl)(Cl)Cl (stereo unspecified)	-12	?	6.8	0	1.7	?
O=[N+]([O-])c1ccccc1NCCNS(=O)(=O)c1ccc(Cl)cc1	-17	-17	-3.6	2	2.5	0.1%
CCOC(=O)N1CCC(N(CCOC)C(=S)Nc2cccc(SC)c2)CC1	2	-1	0.5	0	-0.7	3.4%
S=C(NCc1ccccn1)Nc1ccc(Cl)c(Cl)c1	0	-5	4.0	4	0.0	5.1%
CC(C)CCN(C(=O)CCCSc1nc2ccccc2[nH]1)c1c(N)n(Cc2ccccc2)c(=O)[nH]c1=O	-1	1	1.7	-5	4.7	4.8%
COc1cccc(CN(C)C(=O)CNC(=O)c2ccc(-c3ccccc3)cc2)c1OC	2	-3	0.1	-3	3.4	-0.2%
O=C(CSc1nc2c(c(=O)n1-c1ccc(F)cc1)SCC2)NCC1CCCO1 (stereo unspecified)	2	5	-0.5	23	-0.1	6.6%[38.3 µM]
CCc1nn(CCCC(=O)NCc2ccco2)c(=O)c2cc3occc3n12	-5	0	0.2	8	-0.7	-0.4%
Cc1ccc(NC(=O)CCN2C(=O)CSC2=O)c(C)c1	6	-2	-1.3	-1	-0.6	-0.8%
O=c1ccc2[n+]([O-])c3ccc(O)cc3oc-2c1	-5	-6	-5.1	-3	0.9	4.1%
COc1ccccc1CNC(=O)COC(=O)c1nc(Cl)ccc1Cl	-21	7	-2.7	-16	0.2	-1.9%
Cn1c(SCC(=O)Nc2ccc(N3CCOCC3)cc2)nnc1-c1ccccc1F	15	5	-1.9	12	-1.2	4.1%
CN(C)/C=C/C(=O)c1nnn(C2CCCCC2)c1NC1CCCCC1	3	0	-1.2	5	0.9	3.6%[38.3 µM]
CCOc1ccc2nc(N(CCN(C)C)C(=O)/C=C/c3cccs3)sc2c1	nt	-10	-1.9	-4	0.4	10.0%
COc1ccccc1C(=O)NCCC(=O)NCC(C)(C)N1CCOCC1	15	6	-5.6	6	0.4	1.6%
CC(C)(C)NC(=O)CSc1nnc(-c2c[nH]c3ccccc23)o1	-3	-6	-2.3	-4	0.7	3.6%
CC(C)C1Cc2[nH]c(=O)c(C(=O)O)cc2CO1 (stereo unspecified)	6	5	-0.4	4	0.2	5.7%[38.3 µM]

In the list so far, these have bromine.
SMILES	CtBP-E1A inh	Six1-Eya2 blk	D2 agonist	TRPML1 inh	TRPML1 agonist	PINK1 expr mod
COc1ccccc1NC(=O)CSc1oc(-c2ccc(F)cc2)nc1S(=O)(=O)c1ccc(Br)cc1	nt	nt	nt	-20	-0.4	-2.2%
Cc1ccc(NC(=O)CNc2cccc(Br)c2)cc1S(=O)(=O)N1CCOCC1	2	-8	3.6	4	0.8	1.5%

3 structures from above, sorted by formula weight, largest number first.
SMILES	CtBP-E1A inh	Six1-Eya2 blk	D2 agonist	TRPML1 inh	TRPML1 agonist	PINK1 expr mod
Cn1c(SCC(=O)Nc2ccc(N3CCOCC3)cc2)nnc1-c1ccccc1F	15	5	-1.9	12	-1.2	4.1%
COc1ccccc1C(=O)NCCC(=O)NCC(C)(C)N1CCOCC1	15	6	-5.6	6	0.4	1.6%
CC(C)C1Cc2[nH]c(=O)c(C(=O)O)cc2CO1 (stereo unspecified)	6	5	-0.4	4	0.2	5.7%[38.3 µM]

Screening data deposited in PubChem BioAssay by National Center for Advancing Translational Sciences (NCATS).
